Cruzain inh Det: blocks cruzain activity in presence of Triton detergent. Potency, µM, for the others: max response, negative = inhibition, usual class: inhibitors. AID 1478. hit rate 0.43% among 200,000. purified cruzain, Z-FR-AMC fluorescence, 0.01% Triton. P25779;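 note: plate controls were neutral wells for no effect and buffer without enzyme for full effect; nearly all actives have a fitted effect of over 40% in size; top concentration of the series not given in the record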
Target sequence (P25779 123-467 limits assumed): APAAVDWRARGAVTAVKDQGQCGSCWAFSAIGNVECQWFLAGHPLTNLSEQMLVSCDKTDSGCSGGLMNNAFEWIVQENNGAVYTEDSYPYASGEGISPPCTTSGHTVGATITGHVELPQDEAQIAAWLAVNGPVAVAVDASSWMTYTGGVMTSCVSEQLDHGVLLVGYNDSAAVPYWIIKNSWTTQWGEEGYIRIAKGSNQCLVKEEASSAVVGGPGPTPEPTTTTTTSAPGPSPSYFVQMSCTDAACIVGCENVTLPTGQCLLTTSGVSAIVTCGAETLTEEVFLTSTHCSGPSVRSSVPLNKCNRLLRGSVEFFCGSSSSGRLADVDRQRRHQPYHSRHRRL
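Z-FR-AMC hydrolysis (2 uM substrate) by cruzain (1.5 nM) monitored kinetically at ex 360/em 450 nm after 15 min room-temperature compound exposure; 0.01% Triton X-100, pH 5.5, 5 mM DTT.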
NS1 inh: blocks influenza NS1 protein function. S. cerevisiae slowed by influenza A NS1, growth recovery by OD600. Potency, µM (top dose mostly 46.1 µM), for the others: at the highest dose activity, positive = more growth. hit rate 0.4% among 270,000. AID 2326; active means well fitted rising curve with a large enough effect; inconclusive means small, poorly fitted or top-dose-only effect; inactive means no such curve, though single readings can be large or run the other way; note: nearly all actives have a fitted effect of over 50% in size
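Recovery from NS1-induced slow growth read by OD600 in budding yeast switched to galactose assay medium (pH 6.0, -URA) at 1:100 dilution. Compound 23 nl per well; the matching strain lacking NS1 serves as control.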
SARS PLpro yeast: inhibitors of SARS-CoV papain-like protease in yeast; Potency, µM (doses to about 32.9 µM), inactives show at the top dose activity, positive = growth rescue; AID 485353; hit rate 0.19% among 330,000; S. cerevisiae expressing SARS-CoV PLpro, growth rescue; control for the full effect not named in the record; active means well fitted rising curve with a large enough effect; inconclusive means small, poorly fitted or top-dose-only effect; inactive means no such curve, though single readings can be large or run the other way; note: 0% is about no effect; nearly all actives have a fitted effect of over 55% in size; growth read by luminescence after 48 h
2A StopGo: FMDV 2A StopGo reporter, luciferase signal; human cells with a luciferase reporter of 2A StopGo recoding; control for the full effect not named in the record; Potency, µM (titrated, usually from 57.9 µM), for the others: top-dose signal change, negative = less light; hit rate 1.2% among 410,000; active = well fitted falling curve with a large enough effect; inconclusive = small, poorly fitted or top-dose-only effect; inactive = no such curve, though single readings can be large or run the other way; tested in HEK293T cells; note: % is set by controls: 0 for no effect and ±100 for the full control effect; nearly all actives have a fitted effect of over 45% in size; luciferase light after 4 h
Cruzain noTriton: inhibitors of Trypanosoma cruzi cruzain without detergent; P25779; AID 1476; hit rate 2.3% among 200,000; Potency, µM, inactives show max response, negative = inhibition, most hits filed as inhibitors; purified cruzain, Z-FR-AMC fluorescence, no detergent;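 note: plate controls were enzyme without inhibitor for no effect and buffer without enzyme for full effect; nearly all actives have a fitted effect of over 40% in size; top concentration of the series not given in the record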
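Detergent-free condition (0.00005% Triton X-100) in acetate buffer pH 5.5 with DTT. 1.5 nM enzyme and compound were pre-mixed 15 min, then 2 uM Z-FR-AMC substrate added; reaction progress from fluorescence change between first and third reads (60 s).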
MARV entry inh: blocks Marburg virus binding to or entry into cells | Potency, µM (top dose mostly 37.8 µM), for inactives: top-dose activity change, negative = inhibition, usual class: inhibitors | AID 540276 | hit rate 1.8% among 300,000 | Marburg virus pseudotyped entry inhibition, cell reporter; control for the full effect not named in the record; about a third of the inactives were read at about 46 µM; active = well fitted inhibition curve with a large enough effect; inconclusive = small, poorly fitted or top-dose-only effect, or effect the other way; inactive = flat fitted curve, though single readings scatter; tested in HEK293 cells; about a fifth of its hits are not listed in these tables; note: % is set by controls: 0 for no effect and ±100 for the full control effect; luciferase read-out
LASV entry inh: Lassa virus entry inhibition | hit rate 1.2% among 300,000 | Lassa virus pseudotype entry inhibition, cell reporter; control for the full effect not named in the record | Potency, µM (top dose mostly 37.9 µM), inactives show at the top dose activity change, negative = inhibition, most hits filed as inhibitors; active means well fitted inhibition curve with a large enough effect; inconclusive means small, poorly fitted or top-dose-only effect, or effect the other way; inactive means flat fitted curve, though single readings scatter; tested in HEK293 cells; note: % is set by controls: 0 for no effect and ±100 for the full control effect; nearly all actives have a fitted effect of over 50% in size; luciferase read-out
RE007 growth inh: less growth of the S. pombe RE007 Vpr strain. S. pombe RE007 Vpr strain, BacTiter-Glo ATP luminescence, 24 h; control for the full effect not named in the record. Potency, µM (top dose mostly 92.2 µM), for inactives: top-dose activity change, negative = less growth. hit rate 0.21% among 360,000. AID 651644; active = well fitted falling curve with a large enough effect; inconclusive = small, poorly fitted or top-dose-only effect; inactive = no such curve, though single readings can be large or run the other way;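 note: % is set by controls: 0 for no effect and ±100 for the full control effect; nearly all actives have a fitted effect of over 50% in size; the assay follows cell death caused by Vpr and the record does not say whether a fall means rescue or toxicity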
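Fission yeast strain RE007, carrying one chromosomally integrated HIV-1 vpr copy, was seeded at OD 0.01 in PMG+AL medium with 23 nL pinned compound. After 24 h at 30 °C and 99% humidity, viability was read by BacTiter-Glo luminescence.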
* marks the source's active call; other numbers are inactive results; ? = inconclusive; / = no result given; [ ] = dose if it differs, or a comment. Unless noted, calls come from the whole dose curve; as a rule, active = well fitted curve in the direction sought with a large enough effect; inconclusive = small, poorly fitted or top-dose-only effect, or another doubt; inactive = no such curve, though single readings can be large; an effect the other way counts as inactive or inconclusive. Potency is the fitted concentration of half-maximal effect.

SMILES	MARV entry inh	Cruzain inh Det	NS1 inh	LASV entry inh	Cruzain noTriton	SARS PLpro yeast	RE007 growth inh	2A StopGo
NC(N)=NCCC[C@H](NC(=O)OCc1ccccc1)C(=O)O	10%	-0.6%	18%	2%	0%	3%	30%	-14%
CC(C)CC(C(=O)O)C(C)CC(=O)Nc1ccn(-c2ccccc2)n1 (configuration not stated)	18%	0.1%	14%	5%	-2%	?	12%	-9%
CC(C)Oc1ccc(C(=O)NCC(c2ccc(N(C)C)cc2)N2CCc3ccccc32)cc1 (configuration not stated)	/	-4.5%	/	?	?	/	/	-2%
CCCn1c(SCC(=O)NCc2ccccc2)nnc1-c1ccncc1	18%[46.1 µM]	1.6%	3%	0%	6%	7%	-15%	-7%
CCC(C(=O)NCc1ccccc1OC)n1nc(C)n2c(cc3sccc32)c1=O (configuration not stated)	3%[46.1 µM]	-2.3%	/	/	-10%	/	/	0%
CCc1ccc(NC(=O)CCNS(=O)(=O)c2ccc3c(c2)CCCC(=O)N3)cc1	/	-2.1%	/	?	3%	/	/	-22%
O=C(Oc1c(Cl)cc(Cl)c2cccnc12)N1CCCCC1	0%	4.7%	-21%	1%	9%	-2%	-12%	12%
Cc1ccc2sc(N(CCCN(C)C)C(=O)c3nc4ccccc4s3)nc2c1C	?	/	/	?	/	0%	-10%	-20%
COC(=O)c1ccc(NC(=O)N2CCCC(C(=O)c3ccccc3OC)C2)cc1 (configuration not stated)	/	/	-1%	/	/	-1%	1%	?
Cc1nnc(SC(C)C(=O)Nc2ccc(N3CCOCC3)cc2)n1Cc1ccccc1 (configuration not stated)	9%	/	/	-1%	/	1%	-9%	2%
CCN1CCN(c2nnc(-c3ccc(F)cc3)c3ccccc23)CC1	?	/	-4%	-25%[46.1 µM]	/	1%	2%	-15%
CCOC(=O)C1CCN(C(=O)COC(=O)C2CCN(S(=O)(=O)c3ccc(C)c(C)c3)CC2)CC1	-10%	/	/	-2%	/	0%	1%	-25%
c1n[nH]c(SCCCCSc2ncn[nH]2)n1	3%	4.8%	5%	-2%	1%	3%	2%	-12%
O=c1cc(-c2ccc3c(c2)OCCO3)oc2ccc(Cl)cc12	0%	2.7%	-5%	4%	-4%	1%	-9%	-18%
O=C(Nc1ccc2oc(-c3cccc4c(Br)cccc34)nc2c1)c1ccc(Br)cc1	/	-0.5%	/	-7%[46.1 µM]	5%	/	/	4%
CCCCOc1ccc(/C(N)=N/O)cc1	7%	3.7%	-6%	11%	0%	-1%	-8%	/
CN1C(=O)C(=Cc2ccc(Sc3ccccc3)o2)C(=O)N(C)C1=S	4%[46.1 µM]	/	/	12%	/	/	-19%	?
Cc1ccc(Nc2nnc(-c3ccc(C)c(S(=O)(=O)N4CCCCC4)c3)c3ccccc23)cc1	/	0.5%	/	-13%[46.1 µM]	-1%	/	/	-16%
COc1ccc(/C=N/N2CCOCC2)cc1O	?	-2.3%	23%	-1%	-2%	1%	9%	29%
CCCc1cc(=O)oc2cc(OCC(=O)NCCc3c[nH]c4ccccc34)ccc12	/	/	-10%	/	/	0%	11%	?
Cc1cccc(C(OC(=O)c2ccco2)C(=O)NCc2ccccc2)n1 (configuration not stated)	10%	-3.7%	-3%	7%	-27%	19%	-6%	/
N#Cc1ccccc1OCC(=O)N1CCc2ccccc2C1	14%[46.1 µM]	/	-10%	-1%	/	-5%	33%	14%
CCN(CC(=O)NCc1cccs1)C(=O)c1ccccc1Cl	3%	/	/	20%	/	0%	-11%	11%
Cc1ccccc1C1CC(c2ccc(F)cc2)Nc2nc(N)nn21 (configuration not stated)	19%	0.0%	3%	-5%	3%	5%	2%	-15%
Cc1ccc(NC(=S)Nc2ccc3nc(-c4ccccn4)c(-c4ccccn4)nc3c2)cc1C	1%	-11%	25%	8%	?	?	-4%	-4%
CCN1CCN(CCC(=O)Nc2ccc3c(c2)OCO3)CC1	21%	0.1%	10%	20%	-3%	2%	-3%	-20%
COc1cc(/C=C(\C#N)C(N)=O)ccc1OS(=O)(=O)c1ccc(C)cc1	-4%	-5.5%	-30%	-13%	?	-29%	7%	-23%
CCN(C(=O)COC(=O)c1ccccc1NC(=O)c1ccco1)C1CCS(=O)(=O)C1 (configuration not stated)	4%	/	/	5%	/	-3%	-7%	6%
CC(C)(C)N(Cc1cc2ccccc2[nH]c1=O)C(=O)c1cccnc1	10%	4.5%	5%	2%	-2%	0%	-4%	-6%
CC1Oc2ccccc2C=C1/C=N/NC(=O)c1ccccc1 (configuration not stated)	?	-14%	-14%	?	-14%	-53%	5%	25%
CCOC(=O)C1CCCN(C(=O)CN2C(=O)COc3ccc(C(C)(C)C)cc32)C1 (configuration not stated)	18%	-4.5%	13%	-2%	?	0%	25%	-4%
CCN(CC)CCNc1ncnc2c1sc1nc(N3CCCC3)c3c(c12)CC(C)(C)OC3	?	/	3%	?	/	-1%	10%	?
CCOC(=O)c1c(C)n(C)c2ccc(OCC(O)CN3C(=O)c4ccccc4S3(=O)=O)cc12 (configuration not stated)	-21%	-1.1%	?	-23%	?	-2%	10%	-29%
CC(C)Oc1ccc(CNC(=O)c2ccc(CS(=O)Cc3ccccc3Cl)o2)cc1 (configuration not stated)	/	0.7%	/	-29%[46.1 µM]	-3%	/	/	?
CCC(C)NC(=S)N(Cc1cc2cc(C)ccc2n2nnnc12)CC(C)(C)NC(C)C (configuration not stated)	/	/	-3%	/	/	9%	-2%	22%
Cc1nn(Cc2ccccc2)c(Cl)c1C(=O)OCC(=O)Nc1cccc2ccccc12	?	-1.6%	1%	8%	-27%	-2%	-13%	-11%
O=C(Nc1ccc(NC(=O)c2cc3ccccc3o2)cc1)c1ccc2c(c1)OCCO2	?	/	/	-18%	/	0%	-11%	?
COc1cccc(C(=O)NCCS(=O)(=O)NCc2ccco2)c1	19%[46.1 µM]	/	/	13%	/	0%	63%	8%
COc1cccc(C(=O)Nc2c(C(=O)N3CCN(c4ccc(F)cc4)CC3)oc3ccccc23)c1	/	-4.1%	/	13%[46.1 µM]	-24%	/	/	-11%
CC(=O)Nc1ccc(S(=O)(=O)N(C)c2ccc(OCC(=O)Nc3ccccc3C(C)=O)cc2)cc1	?	/	/	-22%	/	-1%	-1%	?
CC(=O)Nc1ccc(NC(=O)Nc2ccc(C)c(C)c2)cc1	/	/	1%	/	/	1%	5%	23%
COc1ccccc1CN1CC(C(=O)NC2CCOCC2)CCC1=O (configuration not stated)	16%	/	5%	3%	/	5%	4%	-4%
Cc1ccc(OCC(=O)N(Cc2ccccc2)C(C)(C)C)c([N+](=O)[O-])n1	-24%	-4.4%	-8%	-3%	4%	6%	10%	-23%
CCN(CC)c1ccc(NC(=O)Cn2cc3c(n2)CCCC3)c(C)c1	-6%[46.1 µM]	-0.3%	/	-18%[46.1 µM]	5%	/	/	-20%
COc1ccc(CNC(=O)C(=O)NCC2OCCN2S(=O)(=O)c2ccc(OC)cc2)cc1 (configuration not stated)	?	/	/	?	/	/	10%	-21%
COc1ccc(C)cc1S(=O)(=O)N1CCCC(C(=O)N2CCN(c3ccccc3)CC2)C1 (configuration not stated)	/	/	-14%	/	/	-2%	0%	?
CCc1ccc(S(=O)(=O)c2cnc(SCC(=O)Nc3ccc(OC)cc3OC)[nH]c2=O)cc1	30%[46.1 µM]	-22%	/	?	16%	/	/	2%
Cc1cccc(NS(=O)(=O)c2ccc3c(c2)[C@H]2C=CC[C@H]2[C@@H](c2ccc(F)cc2)N3)c1	-4%[46.1 µM]	-7.5%	/	1%[46.1 µM]	-25%	/	/	8%
Cc1ccc2oc(-c3ccc(C)c(NC(=O)c4ccc5c(c4)OCCO5)c3)nc2c1	?	1.2%	/	16%[46.1 µM]	-2%	/	/	50%[activator]
Cc1noc(NS(=O)(=O)c2ccc(N3C(=O)c4ccccc4C3=O)cc2)c1C	14%	1.1%	8%	3%	13%	-4%	11%	12%
Cc1nc2nc(-c3ccc(Cl)cc3)nn2c(C)c1Cl	0%	4.6%	-2%	/	5%	5%	/	/
O=C(CNC(=O)c1ccc(-c2ccccc2)cc1)Nc1ccc(S(=O)(=O)Nc2ncccn2)cc1	/	/	2%	/	/	1%	27%	12%
C/C(CC(=O)Nc1ccc(N(C)C)cc1)=N\NC(=O)c1ccccc1O	/	/	-19%	/	/	-5%	-19%	3%
O=C(NCCN1CCN(Cc2ccccc2)CC1)c1ccc(CS(=O)(=O)c2ccc(Br)cc2)o1	1%[46.1 µM]	/	-11%	-11%[46.1 µM]	/	-1%	0%	-8%
CN(C)C(=O)c1nnc(Cc2ccc(Cl)cc2)o1	2%	0.4%	-37%	14%	-2%	-1%	23%	-9%
CSc1ccccc1NC(=O)COc1ccccc1C	/	/	-38%	/	/	-1%	-20%	33%[activator]
Cc1ccc(/C=N/NC(=O)c2cccs2)o1	27%	-4.6%	12%	?	-2%	13%	-7%	20%
COc1ccc(CNC(=O)C2CCCN(S(=O)(=O)N(C)c3ccc(F)cc3)C2)cc1OC (configuration not stated)	/	-1.8%	/	-9%[46.1 µM]	10%	/	/	13µM*
CN(C(=O)CSC(=O)c1ccccc1)c1ccccc1	/	/	-6%	/	/	-2%	-6%	3%
NCCNC(=O)c1ncsc1-c1cccc(F)c1	?	-6.7%	8%	15%	6%	/	3%[18.4 µM]	-1%
O=C(NCc1ccco1)c1cc(-c2ccccn2)nc2ccccc12	-22%	-4.7%	0%	?	7%	1%	-19%	/
Nc1ccc(C(=O)N2N=C(c3ccccc3)CC2(O)C(F)(F)F)cc1 (configuration not stated)	/	/	-3%	/	/	-3%	-3%	-16%

Compound activity from PubChem BioAssay.
